# Sfp PPTase inh: blocks B. subtilis Sfp PPTase activity | Q9F4F7 | Biochemical Sfp PPTase activity, qHTS | Potency, µM, for inactives: max response, negative = inhibition, hits mostly inhibitors | hit rate 3.5% among 310,000 | AID 1490; active means well fitted inhibition curve with a large enough effect; inconclusive means small, poorly fitted or top-dose-only effect, or another doubt; inactive means no such curve, though single readings can be large or run the other way;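 further: the enzyme is Sfp with the accession as filed and its product quenches rhodamine fluorescence; potency means the concentration at half of the fitted maximal effect; 0% = enzyme reaction without inhibitor and -100% = no enzyme wells; top concentration of the series not given in the record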
#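 Sfp 15 nM + cpd, 15 min RT; start w/ rhodamine-CoA 5 uM, BHQ-2-YbbR 12.5 uM (final); 50 mM Hepes pH 7.6, 10 mM MgCl2, 0.01% NP-40, 0.01% BSA; read 525/598 nm at 0 and 30 min.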
# TRPV1 PAM: enhances activation of the human vanilloid receptor TRPV1; Q8NER1; TRPV1-expressing cells, Fluo-8 calcium influx, capsaicin EC20 potentiation; host cell line not named in the record; control for the full effect not named in the record; hit rate 0.02% among 320,000; potentiation, % at 8.33 µM; active means potentiation above 80%; inconclusive means 30% to 80%; inactive means below 30%; further: 0% is about no effect
# Target sequence (Q8NER1 whole entry, looked up): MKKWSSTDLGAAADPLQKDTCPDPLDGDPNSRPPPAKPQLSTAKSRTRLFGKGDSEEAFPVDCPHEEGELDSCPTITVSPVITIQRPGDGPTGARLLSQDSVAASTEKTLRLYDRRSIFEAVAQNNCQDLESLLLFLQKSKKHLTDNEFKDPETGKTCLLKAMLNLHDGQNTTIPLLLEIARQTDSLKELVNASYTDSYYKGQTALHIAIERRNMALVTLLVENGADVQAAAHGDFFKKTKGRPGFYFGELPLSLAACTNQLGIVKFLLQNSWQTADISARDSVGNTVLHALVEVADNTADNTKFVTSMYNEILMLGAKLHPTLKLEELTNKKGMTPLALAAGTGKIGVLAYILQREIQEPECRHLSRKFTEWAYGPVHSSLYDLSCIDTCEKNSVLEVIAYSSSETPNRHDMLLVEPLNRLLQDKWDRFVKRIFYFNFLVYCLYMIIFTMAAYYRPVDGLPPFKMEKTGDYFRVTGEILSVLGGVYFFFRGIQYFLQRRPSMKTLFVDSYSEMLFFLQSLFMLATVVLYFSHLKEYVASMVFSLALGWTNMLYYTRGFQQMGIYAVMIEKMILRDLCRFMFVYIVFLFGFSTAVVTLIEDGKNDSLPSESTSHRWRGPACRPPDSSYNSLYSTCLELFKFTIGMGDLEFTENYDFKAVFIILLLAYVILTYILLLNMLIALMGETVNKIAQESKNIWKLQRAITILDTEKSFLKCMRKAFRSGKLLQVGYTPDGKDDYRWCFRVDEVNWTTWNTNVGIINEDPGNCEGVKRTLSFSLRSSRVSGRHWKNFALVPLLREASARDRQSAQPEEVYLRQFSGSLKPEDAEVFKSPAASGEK
#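 TRPV1-expressing cells were cultured overnight at 35.5C and loaded with Fluo-8 calcium dye for 40 to 90 min at room temperature. After a 10 s baseline, compound was added and calcium influx was read kinetically for 3 min (ex 480/em 520 nm).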
# Menin MLL FP FL: inhibitors of human menin-MLL interaction, wild-type MLL peptide; AID 1766; 290,000 tested, under 10 active; Fluorescence polarization, fluorescein-MLL peptide displacement from menin; FP activity change, % at 61.4 µM; inconclusive = falling polarisation curve, or a change in total fluorescence; inactive = total fluorescence flat and polarisation flat or rising; no compound was filed as active; the % refers to the polarisation; negative = inhibition;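 further: % of control where 0% means no effect; inhibitors lower the polarisation; unlabelled MLL peptide was the positive control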
# D2 PAM: potentiates the human D2 dopamine receptor allosterically; hit rate 0.23% among 360,000; potentiation, % (no concentration beside the values); DiscoveRx D2 beta-arrestin cells, luminescence, 90 min; 100% = 57 uM dopamine signal; P14416; active = potentiation of 50% or more; inconclusive = 30% to 50%; inactive = 30% or less;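 further: compound concentration not given in the record; tested on top of an EC20 dose of dopamine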
#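 PathHunter D2 cells, attached overnight at 37 deg C, received compound in DMSO plus dopamine at EC20 (50 nM final) for 90 min at 37 deg C. Beta-arrestin recruitment was read as luminescence after 1 h with detection reagent at ambient temperature.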
# gsp ag: gsp mutant agonism; gsp mutant cells, cAMP HTRF, 30 min; control for the full effect not named in the record; Potency, µM (highest dose often 76.9 µM), for inactives: top-dose activation (cAMP increase), usual class: activators; hit rate 0.13% among 340,000; AID 624287; active = well fitted activation curve with a large enough effect; inconclusive = small, poorly fitted or top-dose-only effect, or another doubt; inactive = no such curve, though single readings can be large or run the other way; cell line not stated here;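 further: phosphodiesterase inhibitor Ro 20-1724 added with compounds to block cAMP breakdown; potency means the concentration at half of the fitted maximal effect; nearly all actives have a fitted effect of over 60% in size; about a fifth of the inactives were tested at one dose only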
#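 Cells stably selected in G418 were plated at 2000/well, grown 16-24 hr, then given compounds in DMSO with the PDE inhibitor […] (300 uM solution added) for 30 min at 37C; cAMP was read by HTRF.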
# ClpP mod: qHTS Assay for Activators of ClpP | ATP-dependent Clp protease proteolytic subunit (Bacillus subtilis (strain 168)), P80244 | purified B. subtilis ClpP, FRET peptide cleavage, 20 min | Potency, µM (titrated, usually from 57.5 µM), for the others: at the top dose activity change, negative = active | hit rate 1.9% among 340,000 | AID 651965, 2013; active = well fitted falling curve with a large enough effect; inconclusive = small, poorly fitted or top-dose-only effect; inactive = no such curve, though single readings can be large or run the other way; further: potency means the concentration at half of the fitted maximal effect; the source files actives as falling curves though it sought activators and does not explain the sign; nearly all actives have a fitted effect of over 65% in size; many hits overshoot -100%
# Target sequence (P80244 whole entry, looked up): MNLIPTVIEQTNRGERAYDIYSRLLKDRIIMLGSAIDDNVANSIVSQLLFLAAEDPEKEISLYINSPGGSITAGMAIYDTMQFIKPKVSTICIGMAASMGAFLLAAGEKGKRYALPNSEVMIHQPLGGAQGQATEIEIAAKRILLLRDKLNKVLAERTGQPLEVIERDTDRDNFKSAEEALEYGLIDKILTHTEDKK
#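 Purified B. subtilis ClpP, 10 microg/mL final in Tris/HCl pH8 with KCl, BSA, glycerol and Tween-20, cleaved an Abz/nitrotyrosine-quenched decapeptide. Fluorescence (ex 320, em 430) was read at 0 and 20 min at room temperature. Delta was normalized to 5.8 microM ADEP and DMSO/no-enzyme controls.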
# gsp antag: antagonists of gsp mutant (McCune-Albright syndrome); gsp-mutant cells, cAMP HTRF, 30 min; control for the full effect not named in the record; Potency, µM (highest dose often 76.9 µM), inactives show top-dose activity change, negative = inhibition, most hits filed as inhibitors; hit rate 0.4% among 340,000; active = falling curve of any shape with a large fitted effect; inconclusive = falling curve, mostly with a smaller effect; inactive = flat or rising curve; cell line not stated here;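 further: intracellular cAMP measured with PDE inhibitor Ro 20-1724 present during compound exposure; potency means the concentration at half of the fitted maximal effect; on the % scale 0 is the no-effect control and ±100 the full control effect; nearly all actives have a fitted effect of over 65% in size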
#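 HTRF cAMP measurement after 30 min RT detection following 30 min, 37C compound treatment alongside […] (added as 300 uM solution) in G418-selected cells seeded at 2000/well and grown 16–24 h.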
# * marks the source's active call; other numbers are inactive results; ? = inconclusive; · = no result given; & = joins results of further samples; [ ] = dose if it differs, or a comment.
# Each structure is followed by: Sfp PPTase inh	TRPV1 PAM	Menin MLL FP FL	D2 PAM	gsp ag	ClpP mod	gsp antag
Cc1cc(C)cc(OCC(=O)NNC(=O)CCN2C(=O)c3ccccc3C2=O)c1
→ 17%	21	3.8	-5	-20%[15.4 µM]	·	17%
CCC(=O)Nc1ccc(Nc2nc(C)c([N+](=O)[O-])c(Nc3ccc(NC(=O)CC)cc3)n2)cc1
→ 6%	-2	0.2	-27	-31%[inhibitor]	1.6%	-15%
Cc1nnc(SCCN2CCOCC2)n1C
→ ?	-5	0.3	11	-66%[inhibitor]	-0.6%	5%
O=S(=O)(c1ccccc1Cl)N1CCC(O)(c2ccc3c(c2)OCO3)CC1
→ -7%	-17	-0.7	5	?	0.3%	-25%
C=CCNC(=O)NC(=O)COC(=O)COc1ccc(Br)cc1F
→ 1%	23	1.7	-5	16%	-6.5%	1%
COC(=O)c1ccc(NC(=S)Nc2ccccn2)cc1
→ 11%	-68	-0.1	-5	-12%	-3.2%	4%
CC(C)OCC(O)Cn1c(N2CCCC2)nc2c1c(=O)n(C)c(=O)n2C (stereo unspecified)
→ 8%	-3	-1.3	-10	3%[15.4 µM]	-0.6%	-16%
Cc1ccccc1C(=O)Nc1ccc2c(c1)CCCN2C(=O)c1cccs1
→ -12%	?	·	-9	-23%	-0.4%&-1.5%	?
CCOC(=O)c1c(C)sc2c1N(C(=O)CN(CC)CC)c1cc(Cl)ccc1S2
→ 2%	-14	-3.2	-15	19%	-8.9%	-7%
CCn1c(SCC(=O)N2CCCC2)nnc1-c1ccc(N)cc1
→ -10%	12	-0.9	-22	0%	-1.5%	9%
CSCCC(NS(=O)(=O)c1ccccc1F)C(=O)NNC(=O)c1csc(N2CCOCC2)n1 (stereo unspecified)
→ ·	16	·	13	0%[15.4 µM]	·	7%
CC1CCN(C(=O)Cn2cc3c(n2)CCCC3)CC1
→ 23%	8	4.6	0	-23%	1.5%	9%
CCN(CCCNC(=O)CN1C(=O)COc2ccccc21)c1cccc(C)c1
→ 2%	?	-0.2	-16	-11%	-0.8%	7%
O=C(O)c1nn(-c2cccc(C(F)(F)F)c2)ccc1=O
→ 6%	4	-0.7	-13	7%	-0.8%	4%
O=C(CSc1nncn1-c1ccccc1)Nc1ccccc1
→ 4%	5	1.5	-10	-11%[15.4 µM]	-0.8%	3%
CC(=O)/C(C(=N)N1CCN(Cc2ccccc2)CC1)=C(\C)O
→ 7%	-7	-11	-2	-10%	-16%	-5%
Cc1ccc(N(C(=O)CCC(=O)Nc2cc(C)on2)C(C(=O)NC2CCCC2)c2ccccc2)cc1 (stereo unspecified)
→ 8%	-8	-1.6	-6	0%	0.7%	-1%
Cc1cc(C)n(-c2ccc(NC(=O)C3CCN(Cc4cc(C)c(C)o4)CC3)cc2)n1
→ -2%	2	11	-19	-4%	-1.9%	2%
O=C(Nc1ccccc1F)c1ccc(S(=O)(=O)N2CCCCCC2)cc1
→ ·	-22	·	0	-13%	-2.8%	-5%
Cc1ccccc1CNS(=O)(=O)c1c(C)[nH]c(C)c1C(=O)N1CCCCC1
→ 14%	-7	7.0	-7	?	0.3%	-20%

# At a glance, some entries already given.
# Each structure is followed by: Sfp PPTase inh	TRPV1 PAM	Menin MLL FP FL	D2 PAM	gsp ag	ClpP mod	gsp antag
Cc1ccc(N(C(=O)CCC(=O)Nc2cc(C)on2)C(C(=O)NC2CCCC2)c2ccccc2)cc1 (stereo unspecified)
→ 8%	-8	-1.6	-6	0%	0.7%	-1%
Cc1cc(C)n(-c2ccc(NC(=O)C3CCN(Cc4cc(C)c(C)o4)CC3)cc2)n1
→ -2%	2	11	-19	-4%	-1.9%	2%
O=C(Nc1ccccc1F)c1ccc(S(=O)(=O)N2CCCCCC2)cc1
→ ·	-22	·	0	-13%	-2.8%	-5%
Cc1ccccc1CNS(=O)(=O)c1c(C)[nH]c(C)c1C(=O)N1CCCCC1
→ 14%	-7	7.0	-7	?	0.3%	-20%

# Continued.
# Each structure is followed by: Sfp PPTase inh	TRPV1 PAM	Menin MLL FP FL	D2 PAM	gsp ag	ClpP mod	gsp antag
CCOC(=O)C(c1ccccc1)C(Nc1ccccc1)c1ccccn1 (stereo unspecified)
→ 13%	-8	-2.7	-21	3%	-1.0%	-5%
COc1cc(C2c3c(n[nH]c3C)C(=O)N2c2ccc(Br)cc2)ccc1O (stereo unspecified)
→ 8%	1	-0.1	-7	-16%	-1.1%	-1%
CC(C)O/C(=N\S(=O)(=O)c1ccc(Cl)cc1)c1ccccc1
→ 10%	?	0.4	-16	-3%	0.7%	-2%
Cc1[nH]n(-c2ccccc2)c(=O)c1N=Nc1ccc(Cl)cc1
→ ?	-10	3.2	-5	-33%[inhibitor]	·	0%
COCCNC(=O)CN(C(=O)CCC(=O)Nc1cc(C)on1)c1cccc(C)c1C
→ 13%	-2	2.1	-4	0%	1.1%	9%
COc1cc(C(=O)NCCC(=O)N2CCN(C)CC2)cc(OC)c1OC
→ 9%	1	-1.1	-6	4%[15.4 µM]	0.5%	9%
CN(CC1CCOCC1)C(=O)CC1C(=O)NCCN1CC1CCCCC1 (stereo unspecified)
→ -3%	-3	2.2	-7	-2%[15.4 µM]	·	6%
O=C(NN=Cc1ccc(OC(F)F)cc1)c1ccc(NS(=O)(=O)c2cccs2)cc1
→ ·	·	·	1	19%	-2.6%	-18%
CCOC(=O)C1CCN(C(=O)Cn2nc(C)n3nc(-c4ccc(OC)cc4)cc3c2=O)CC1
→ -1%	13	·	-6	8%	4.4%	-13%
O=C(NNS(=O)(=O)c1ccc(Cl)cc1)c1cccs1
→ 7%	8	3.0	-3	-16%	-1.9%	0%
CC(=O)NCCc1nc2cc(NC(=O)c3ccccc3)ccc2n1C
→ 7%	-7	-0.2	-1	-12%	0.0%	-1%
O=C(COc1ccccc1[N+](=O)[O-])Nc1cccnc1
→ 14%	-4	-14	-5	13%[15.4 µM]	0.3%	6%
S=C(NCCc1ccccc1)N1CCCCC1
→ 6%	-27	3.0	-4	-26%	-0.6%	9%
O=C(CSc1nnc(-c2ccccc2)o1)N1CCCCC1
→ 17%	-27	2.9	2	0%	·	-2%
O=C(O)C(CCc1ccccc1)(Cc1ccccc1)C(=O)O
→ ·	·	·	0	-29%	·	-1%
Cc1ccc(S(=O)(=O)NCCC(=O)NCCSc2ccc(Br)cc2)cc1
→ 13%	-10	·	-7	21%	0.8%	4%
COc1ccc(/C=C/C(=O)c2ccncc2)c2ccccc12
→ ?	-3	?	?	-14%	1.4%	-4%
CCOC(=O)C1CCN(CC(=O)Nc2cc(C)nn2-c2nc3ccccc3s2)CC1
→ 1%	-12	0.0	8	?	-1.0%	0%
O=C(Nc1ccc(Oc2cccnc2)cc1)C1CCCCN1Cc1ccc(CO)o1 (stereo unspecified)
→ 21%	-6	-0.4	22	-1%	-3.3%	5%
CC(NS(=O)(=O)c1ccccc1)c1n[nH]c(=S)n1-c1ccccc1 (stereo unspecified)
→ -28%	1	-5.7	-10	28%[15.4 µM]	·	5%
CC1CN(C(=O)CCC(=O)N2CCCCC2)c2ccccc2O1 (stereo unspecified)
→ 14%	-23	-0.9	-6	-41%[inhibitor]	-2.2%	-11%
C[N+](C)=C1SCC(C)(/C=N/O)S1 (stereo unspecified)
→ ?	-2	2.6	0	-14%[15.4 µM]	1.2%	-20%
O=C(NCCNC1CCC(c2ccccc2)CC1)c1cccs1 (stereo unspecified)
→ 5%	-2	-3.1	-18	2%[15.4 µM]	·	18%
CCN1C(=O)CSC1=Nc1ccc(Cl)c(Cl)c1
→ 7%	-17	-1.1	-4	-7%[15.4 µM]	2.2%	-4%
CN(C)c1ccc(/C=C2\N=C(C(C)(C)C)OC2=O)cc1
→ 8%	-7	?	-5	1%	1.5%	?
Cc1c(CCO)c(=O)n(-c2ccccc2)n1S(=O)(=O)c1ccc(F)cc1
→ 11%	0	-0.3	23	1%	-0.4%	-1%
CN(CC(=O)Nc1ccc(C(N)=O)cc1)S(=O)(=O)c1ccc2c(c1)OCCO2
→ ·	·	·	-4	24%	·	1%
CCCCC(OC(=O)c1cc2occc2n1C)C(=O)NCC1CCCO1 (stereo unspecified)
→ -8%	-18	-2.7	-19	-11%	-8.4%	8%
CCOc1ccc(Br)cc1CSC(=N)N
→ -6%	-9	-0.2	-18	?	-0.8%	8%
COc1cc2nc(NC(=O)c3ccc(Cl)cc3)[nH]c(=O)c2cc1OC
→ -1%	0	5.9	-10	-1%	-6.8%	-8%
NNc1nc2sc3c(c2c(=O)n1Cc1ccccc1)CCC3
→ 32µM*	-9	14	-4	0%[15.4 µM]	·	-1%
Cc1cc(C)cc(N(C(=O)c2cc3ccccc3oc2=O)C2C=CS(=O)(=O)C2)c1 (stereo unspecified)
→ -1%	10	5.6	-3	1%	-10%	-2%
O=C(N/N=C/c1cn(CCOc2ccccc2)c2ccccc12)c1ccncc1
→ -3%	13	1.1	-3	-8%[15.4 µM]	0.3%	-10%
CCOc1ccc(S(=O)(=O)NCc2ccccn2)c(C)c1C
→ 7%	-6	-25	-4	-23%	·	9%
CCC1(c2ccc(Cl)cc2)NC(=O)N(CC(=O)NC2(C#N)CCCCC2)C1=O (stereo unspecified)
→ ·	·	·	-1	8%	0.8%	7%
O=C(CSc1nc(C2CCCCC2)n(-c2ccccc2)n1)NCC(F)(F)F
→ 8%	-5	4.9	-7	-19%	-0.8%	-13%
Cc1nc2ccccc2c(=O)n1NC(=O)c1ccc([N+](=O)[O-])cc1Cl
→ 18%	5	3.3	-4	34%[15.4 µM]	·	0%
Nc1nc(N)nc(Cc2ccccc2O)n1
→ ·	1	·	-10	·	0.8%	16%
COC(=O)c1c(NC(=O)C2C3C=CC(CC3)C2C(=O)O)sc(C)c1C (stereo unspecified)
→ 5%	0	0.4	-18	28%	-11%	15%
O=C(CN1CCOCC1)Nc1ccccc1Sc1ccc(Cl)cc1
→ -9%	-1	-1.1	3	-2%[15.4 µM]	·	-12%
CCCCn1c(=O)[nH]c(=O)c2c1nc(-c1cc(Cl)c(OC)c(OC)c1)n2C
→ 0%	-2	3.2	1	9%	·	-1%
Cc1cc(C)cc(N2CCCn3c2nc2c3c(=O)n(CCN3CCOCC3)c(=O)n2C)c1
→ 8%	-22	0.2	13	-7%	-8.9%	-17%

# Screens from PubChem.
